High-throughput results as filed in PubChem BioAssay.
Sa helicase inh = inhibitors of S. aureus replicative helicase, primary screen, biochemical, fluorescence unwinding readout. replicative DNA helicase (DnaC/DnaB), Staphylococcus aureus. purified S. aureus helicase, fluorescence unwinding assay; about half of the hits fall short of the stated cut. inhibition, %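 (tested at about 80 µM)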. 120,000 compounds, 0.05% hits;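 active means both duplicates at 50% or more, or one of them with a favoured structure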;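 further: 0% = mean of negative control wells and 100% = mean of positive control wells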
MgrA DNA FP = S. aureus MgrA activity modulators, primary screen, biochemical, S. aureus Newman, fluorescence polarization; inhibition, %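 (about 10 µg/mL by stock and volumes)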; AID 602314, 2012; 84,000 compounds, 0.13% hits; MgrA-DNA binding;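 active means above 50% in either of two replicates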;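 further: 0% = protein plus DNA without compound and 100% = DNA alone without protein; higher means less MgrA bound to DNA so lower polarization; one replicate is shown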
* = called active by the depositor; & = joins results of further samples. Not all compounds are listed; the hit share may differ from the screen's.

`O=C(C[n+]1cccc(NC(=O)c2ccccc2)c1)c1ccccc1` gave Sa helicase inh 8 and MgrA DNA FP 1.1.
For COc1ccccc1OCC(=O)Nc1cc(-c2nc3ccccc3[nH]2)ccc1C the results were Sa helicase inh 14.
Screening COc1cc(N=CC2=C(O)CC(C)(C)CC2=O)c(OC)cc1Cl returned Sa helicase inh 16.
`CCC(Sc1nc(C)cc(=O)[nH]1)C(=O)Nc1sc2c(c1C#N)CCCC2` (configuration not stated) gave Sa helicase inh 8.
`CCCn1c(C2CC(=O)N(c3ccc(CC)cc3)C2)nc2ccccc21` (configuration not stated) gave Sa helicase inh -14.
CN(C(=O)Cn1c(=O)oc2ccccc21)c1ccccc1 was read as Sa helicase inh -9.
For Cc1cccc(CSC2=NCCN2C(=O)C2CC2)c1 the results were Sa helicase inh 7.
Screening COc1ccc(Cl)cc1-n1nnc(-c2nc(-c3ccc4c(c3)OCO4)no2)c1N returned Sa helicase inh -34.
O=C(NCC1CCCO1)c1cc2ccccc2nc1Cl (configuration not stated) was read as Sa helicase inh 5 and MgrA DNA FP 1.0.
Screening Cc1ccc(S(=O)(=O)c2ccc(-n3nc(C)cc3N)cc2)cc1 returned Sa helicase inh 2 and MgrA DNA FP -0.1.
Screening O=S(=O)(NCc1ccco1)c1cccc(-n2cnnn2)c1 returned Sa helicase inh -9.
O=C(O)C1CC(=O)N(Cc2ccccc2)C1c1ccccc1 (configuration not stated) was read as Sa helicase inh 17 and MgrA DNA FP -2.5.
`CCN1C(=O)Cc2ccccc21` gave MgrA DNA FP -1.6.
CC(NCCC(=O)O)c1ccccc1 (configuration not stated) was read as Sa helicase inh -10 and MgrA DNA FP 8.1.
Cc1ccc(SCC(=O)Nc2cccnc2)cc1 was read as Sa helicase inh 8 and MgrA DNA FP 2.5.
CC1CCC(NC(=O)C2CCN(c3nnc(-n4cccc4)s3)CC2)CC1 (configuration not stated) was read as Sa helicase inh -13 and MgrA DNA FP 0.8.
C=CCNC(=O)CSc1nc(-c2ccco2)cc(C(F)(F)F)n1 was read as Sa helicase inh 8 and MgrA DNA FP -0.2.
CSc1nn(-c2ccccc2)cc1C(N)=S was read as MgrA DNA FP 2.4.
`O=C1NC(=O)C2(CCC(C(=O)O)C2)N1` (configuration not stated) gave Sa helicase inh 11 and MgrA DNA FP -3.6.
CCOc1cc(C2C(C(=O)OC(C)C)=C(C)NC3=C2C(=O)CC(C)(C)C3)cc(Br)c1O (configuration not stated) was read as MgrA DNA FP 0.3.
`COC(=O)CCN1CCC(C(N)=O)CC1` gave Sa helicase inh 6.
Screening CC1(O)CC(C(F)(F)OC(F)(F)F)=NN1S(=O)(=O)c1ccccc1 (configuration not stated) returned Sa helicase inh 11 and MgrA DNA FP -3.4.
Screening Cc1ccc(C(=O)Nc2sc(CC#N)nc2-c2ccc(C)cc2)cc1 returned Sa helicase inh -25.
For CCCN(CCC)S(=O)(=O)c1ccc(C(=O)OCC(=O)c2ccccc2)cc1 the results were Sa helicase inh 8.
O=C(NC(=S)N1CCCCC1CO)C12CC3CC(CC(C3)C1)C2 (configuration not stated) was read as Sa helicase inh -3.
Screening [O-]/[N+](Cc1ccccc1)=N\OCc1ccccc1 returned Sa helicase inh 7 and MgrA DNA FP 0.8.
`Cc1ccc(-c2cc(C(=O)N3CCCC3)no2)cc1` gave Sa helicase inh -8 and MgrA DNA FP -0.5.
CSc1nc(-c2cc(Cl)cc(Cl)c2)nn1C(=O)N(C)C was read as MgrA DNA FP 0.6.
Screening CC(=O)CSc1nsc(SCC(C)=O)c1C#N returned MgrA DNA FP 7.9.
Screening CCc1c(C)[nH]n(CCC#N)c1=O returned Sa helicase inh 6 and MgrA DNA FP -2.9.
For Cc1noc(C)c1CC(=O)OCc1ccc(C#N)cc1 the results were Sa helicase inh 7.
For Cc1cc(O)cc(=O)n1C the results were Sa helicase inh 12.
`O=S(=O)(c1ccc2ccccc2c1)N1CCCc2ccccc21` gave Sa helicase inh 10 and MgrA DNA FP 1.0.
For Cc1[nH]c2ccccc2c1C(=O)COC(=O)c1ccc2c(=O)n3c(nc2c1)CCC3 the results were Sa helicase inh -8.
Screening COC(=O)c1ccc2c(c1)n(CCO)c(C)[n+]2CCO returned Sa helicase inh -2 and MgrA DNA FP -0.9.
For O=c1[nH]c2ccccc2nc1/C=C(\O)c1ccccc1 the results were Sa helicase inh -21&7 and MgrA DNA FP 2.2&0.8.
`NNC(=O)Cn1c2ccccc2c2ccccc21` gave MgrA DNA FP 0.7.
Screening Cc1ccc(-n2c(C)cc(C(=O)CN3CCC(C)CC3)c2C)cc1 returned Sa helicase inh 12.
Screening CCN1CCN(C2CC(=O)N(CC)C2=O)CC1 (configuration not stated) returned Sa helicase inh 9 and MgrA DNA FP 2.1.
Screening Cc1cccc(NS(=O)(=O)c2c(C)noc2C)c1 returned Sa helicase inh -6 and MgrA DNA FP 0.5.
`CCc1ccc(NC(=O)c2noc3c2CCc2ccccc2-3)cc1` gave Sa helicase inh -22.
c1cc(NC2=NCCCCC2)ccc1NC1=NCCCCC1 was read as Sa helicase inh 10.
Cc1ccc(S(=O)(=O)NC(Cc2ccccc2)C(=O)O)cc1C (configuration not stated) was read as Sa helicase inh -3.
O=C(CSc1ncn(-c2ccccc2)n1)NC1CCCCC1 was read as Sa helicase inh 0 and MgrA DNA FP 0.8.
O=C1OCCC1Sc1nnc(-c2cccs2)n1-c1ccccc1 (configuration not stated) was read as Sa helicase inh -6.
Screening CC1(C)Nc2ccccc2C(=O)N1NS(=O)(=O)c1ccccc1 returned Sa helicase inh 1 and MgrA DNA FP 0.5.
Screening Cn1cnnc1SCc1ccc(C(=O)N/N=C2\CCCc3ccccc32)cc1 returned Sa helicase inh -15.
Screening CCn1c(=O)n(Cc2ccco2)c(=O)c2sc3ccccc3c21 returned Sa helicase inh 10.
Screening CC(=O)Nc1ccc(F)cc1[N+](=O)[O-] returned MgrA DNA FP 2.4.
`Cc1ccc(C)c(NC(=O)OC(C)(C)C)c1` gave Sa helicase inh -23 and MgrA DNA FP 4.2.
CC1=C(C(=O)Nc2cccc(C)n2)C(c2ccsc2)C2=C(CCCC2=O)N1 (configuration not stated) was read as Sa helicase inh -15 and MgrA DNA FP 0.1.
`CC1CN(C(=O)/C=C/c2ccc3c(c2)OCO3)CC(C)O1` (configuration not stated) gave Sa helicase inh 9 and MgrA DNA FP 0.1.
`CN(C)C(=O)C[n+]1ccc(/C=N/O)cc1` gave Sa helicase inh -7 and MgrA DNA FP -0.3.
Screening N#C/C(=C\NCc1ccccn1)S(=O)(=O)c1ccc(Cl)cc1 returned MgrA DNA FP -2.0.
For O=C(NCCCO)c1ccncc1 the results were Sa helicase inh -4.
`Cc1cc(C)n2nc3nc(N4CCOCC4)nc(-c4ccc(C(C)C)cc4)c3c2n1` gave Sa helicase inh 11 and MgrA DNA FP 4.2.
Screening CC1(C)COC(c2sccc2C(=O)O)=N1 returned MgrA DNA FP -2.5.
Screening Clc1nc2sccn2c1/C=N/n1cnc2ccccc21 returned Sa helicase inh -16 and MgrA DNA FP 0.5.
`CCN(C(=O)c1cc2cccc(OC)c2oc1=O)C1CCCCC1` gave Sa helicase inh -9.
Screening O=C(CSc1nnc2c3c4c(sc3ncn12)CCCC4)Nc1nccs1 returned Sa helicase inh 2 and MgrA DNA FP -0.5.
For CC1=CC(C)(C)CC(=S)N1c1cccc(F)c1 the results were Sa helicase inh 0 and MgrA DNA FP 0.6.
For Cc1ccc(-n2nnnc2SCC(=O)c2ccccc2)c(C)c1 the results were MgrA DNA FP -3.2.
Cc1cc(C(=O)OCC(=O)N(C)c2ccccc2)c(C)o1 was read as Sa helicase inh 0 and MgrA DNA FP 0.3.
Screening O=C(NCCCc1nc2ccccc2[nH]1)c1ccc(F)cc1 returned Sa helicase inh 1 and MgrA DNA FP 0.3.
COc1ccc(CCNC(=O)CCn2c(=O)oc3ccccc32)cc1 was read as Sa helicase inh -1.
`CCN(CC(=O)c1c(N)n(Cc2ccccc2)c(=O)n(CC)c1=O)Cc1nc2ccccc2c(=O)[nH]1` gave Sa helicase inh 11.
For O=C(NC(=S)Nc1ccc2c(c1)OCO2)c1ccccc1 the results were Sa helicase inh 7 and MgrA DNA FP 2.3.
Screening COc1cccc(-c2noc(COC(=O)c3ccccc3-c3ccccc3C#N)n2)c1 returned Sa helicase inh 10.
`CN(C)C(=O)CSc1ncnc2sc3c(c12)CCCC3` gave Sa helicase inh -4.
For CCC1=Nc2cc(C(=O)N3CCc4ccccc43)ccc2Sc2ccccc21 the results were Sa helicase inh 3 and MgrA DNA FP -0.5.
`CCCCC/C=C\CC1OC1CCCCCCCC(=O)O` (configuration not stated) gave MgrA DNA FP -0.3.
COC(=O)CNC(=O)NC12CC3CC(CC(C3)C1)C2 was read as Sa helicase inh -29.
Screening COC(=O)c1sc(-c2ccc(C(C)(C)C)cc2)cc1NC(=O)CCC(=O)O returned MgrA DNA FP 1.1.
CCCCCCOc1ccccc1C(N)=O was read as MgrA DNA FP 2.3.
Screening O=c1c(Cl)c(Cl)cnn1C1CCS(=O)(=O)C1 (configuration not stated) returned Sa helicase inh 13.
For CCOC(=O)N1CCC(=NNC(=O)COc2ccc(C)cc2C(C)C)CC1 the results were Sa helicase inh -7.
CCOC(=O)N1CCN(C(=O)c2cc3c(ccc4ccccc43)oc2=O)CC1 was read as Sa helicase inh 8 and MgrA DNA FP -0.2.
Screening COC(=O)c1sc(-c2cccs2)cc1N1C(=O)C=CC1=O returned MgrA DNA FP -6.5.
Cc1nn(C)c2oc(=O)cc(C(F)(F)F)c12 was read as MgrA DNA FP -0.3.
`COc1ccccc1C(CCNCc1cccs1)c1ccco1` (configuration not stated) gave Sa helicase inh 8.
Cn1c(Cc2nn(C)c(=O)c3ccccc23)nnc1SCC(=O)c1ccc(Cl)cc1Cl was read as MgrA DNA FP -1.8.
`O=C(CSC(=O)c1ccccc1)NC1CCCCC1` gave Sa helicase inh -27 and MgrA DNA FP 5.4.
For COc1ccc2oc(=O)cc(CN(C)CCC#N)c2c1 the results were Sa helicase inh 12.
`C=CCN(CC=C)S(=O)(=O)c1ccc(C(=O)N2CCCCC2)cc1` gave Sa helicase inh -11.
CSc1n[nH]c2nc3c(c(=O)n12)C1(CCCC1)Cc1ccccc1-3 was read as Sa helicase inh 6 and MgrA DNA FP -0.7.
For O=C(Cn1ccc2ccccc2c1=O)NC1CCCCC1 the results were Sa helicase inh 11 and MgrA DNA FP 0.4.
Screening Cc1ccc(CNC(=O)c2ccc(Cn3c(=O)[nH]c4ccccc4c3=O)cc2)o1 returned Sa helicase inh 32.
`Cc1ccc2[nH]c(=O)c3cc(C(=O)NCCC(C)C)sc3c2c1` gave Sa helicase inh 15 and MgrA DNA FP -1.1.
`Cc1cc(C)c2[nH]c(=O)c(CN(Cc3ccco3)C(=S)NCCCN3CCOCC3)cc2c1` gave Sa helicase inh 1 and MgrA DNA FP -0.5.
O=C(O)c1ccccc1C(=O)N1CCN(c2ccncc2)CC1 was read as Sa helicase inh 11.
CCN(CC)S(=O)(=O)c1ccc(NC(=O)c2noc3c2COc2ccccc2-3)cc1 was read as Sa helicase inh 7 and MgrA DNA FP 0.4.
Cc1cc2c(cc1C)NC(CC(=O)NC(C)c1ccccc1)C(=O)N2 (configuration not stated) was read as Sa helicase inh 24.
For CCc1c(C(=O)OC)nnn1-c1nonc1N the results were Sa helicase inh 12 and MgrA DNA FP -1.5.
For CCSc1nc(C(=O)O)cc(=O)[nH]1 the results were MgrA DNA FP -0.7.
For Cc1cc(O)c(C=O)c2c1C(=O)Oc1c(C)c(O)c3c(c1O2)C(O)OC3=O (configuration not stated) the results were MgrA DNA FP 8.9.
`NCc1ccc(CN2CCCC2)cc1` gave Sa helicase inh 3 and MgrA DNA FP 3.2.
`O=C(c1ccc(CNS(=O)(=O)c2ccc(Br)cc2)cc1)N1CCCC1` gave Sa helicase inh 8 and MgrA DNA FP -0.7.
Screening Cc1noc(C)c1S(=O)(=O)N(CCC#N)Cc1ccccc1 returned MgrA DNA FP -1.1.
`O=C(CCCSc1nnc(-c2ccc3c(c2)OCO3)o1)c1cccs1` gave Sa helicase inh 3.
For CC(C)NC(=O)CSc1nnc(-c2ccc3ncccc3c2)n1C the results were MgrA DNA FP 1.0.
O=C(O)c1ccc(CSc2nnc(-c3ccncc3)n2CC2CCCO2)cc1 (configuration not stated) was read as Sa helicase inh 4 and MgrA DNA FP 0.9.

Among those listed so far, these contain a thiophene ring, fused or not:
`CCC(Sc1nc(C)cc(=O)[nH]1)C(=O)Nc1sc2c(c1C#N)CCCC2` (configuration not stated) gave Sa helicase inh 8.
O=C1OCCC1Sc1nnc(-c2cccs2)n1-c1ccccc1 (configuration not stated) was read as Sa helicase inh -6.
Screening CCn1c(=O)n(Cc2ccco2)c(=O)c2sc3ccccc3c21 returned Sa helicase inh 10.
CC1=C(C(=O)Nc2cccc(C)n2)C(c2ccsc2)C2=C(CCCC2=O)N1 (configuration not stated) was read as Sa helicase inh -15 and MgrA DNA FP 0.1.
Screening CC1(C)COC(c2sccc2C(=O)O)=N1 returned MgrA DNA FP -2.5.
Screening O=C(CSc1nnc2c3c4c(sc3ncn12)CCCC4)Nc1nccs1 returned Sa helicase inh 2 and MgrA DNA FP -0.5.
`CN(C)C(=O)CSc1ncnc2sc3c(c12)CCCC3` gave Sa helicase inh -4.
Screening COC(=O)c1sc(-c2ccc(C(C)(C)C)cc2)cc1NC(=O)CCC(=O)O returned MgrA DNA FP 1.1.
Screening COC(=O)c1sc(-c2cccs2)cc1N1C(=O)C=CC1=O returned MgrA DNA FP -6.5.
`COc1ccccc1C(CCNCc1cccs1)c1ccco1` (configuration not stated) gave Sa helicase inh 8.
`Cc1ccc2[nH]c(=O)c3cc(C(=O)NCCC(C)C)sc3c2c1` gave Sa helicase inh 15 and MgrA DNA FP -1.1.
`O=C(CCCSc1nnc(-c2ccc3c(c2)OCO3)o1)c1cccs1` gave Sa helicase inh 3.
